eIF4H inh – inhibitors of RNA binding by human eIF4H; Q15056; eIF4H fluorescence polarization binding assay; actives 0.94% (n = 290,000); inhibition, % at 35 µM;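 active means 50% or more with normal probe brightness, or confirmed in later tests; about a fifth of its hits are not listed in these tables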;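 further: calls also rest on retests at 20 µM and on dose response follow-up; 0% = protein and probe with vehicle and 100% = probe without protein; strong numbers were not always called active; many hits fall short of the cut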
Yeast UUG start – yeast start codon fidelity modulation. actives 0.13% (n = 350,000). activity score, % at 18.7 µM. S. cerevisiae UUG-firefly luciferase reporter, luminescence/redox ratio;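 active means replicate mean at a twofold rise or more, about +100% in these data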;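 further: firefly luciferase made from a UUG start codon reports start codon fidelity; reporter light over untreated wells divided by growth signal over untreated wells; some hits fall short of that in this replicate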
Rce1 inh – inhibitors of yeast Ras-converting enzyme. Q03530. yeast membranes, quenched prenylated peptide cleavage fluorescence. calls only. actives 0.27% (n = 290,000);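 active means fall in fluorescence gain of 50% or more versus controls, with final raw signal at or below 3038400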;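 further: plate controls were neutral control wells for no effect and wells lacking membranes for full effect; tested at 10 µM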
PABP polyA inh – blocks human PABP binding to poly(A) RNA; P11940; fluorescence polarization; inhibition, % at 35 µM; actives 1% (n = 290,000);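 active means 50% or more with normal probe brightness, or confirmed in later tests; about a fifth of its hits are not listed in these tables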;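 further: calls also rest on retests at 20 µM and on dose response follow-up; controls were probe without protein and protein plus probe with vehicle; some compounds called inactive have numbers as strong as hits; many hits fall short of the cut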
Target sequence (P11940 whole entry, looked up): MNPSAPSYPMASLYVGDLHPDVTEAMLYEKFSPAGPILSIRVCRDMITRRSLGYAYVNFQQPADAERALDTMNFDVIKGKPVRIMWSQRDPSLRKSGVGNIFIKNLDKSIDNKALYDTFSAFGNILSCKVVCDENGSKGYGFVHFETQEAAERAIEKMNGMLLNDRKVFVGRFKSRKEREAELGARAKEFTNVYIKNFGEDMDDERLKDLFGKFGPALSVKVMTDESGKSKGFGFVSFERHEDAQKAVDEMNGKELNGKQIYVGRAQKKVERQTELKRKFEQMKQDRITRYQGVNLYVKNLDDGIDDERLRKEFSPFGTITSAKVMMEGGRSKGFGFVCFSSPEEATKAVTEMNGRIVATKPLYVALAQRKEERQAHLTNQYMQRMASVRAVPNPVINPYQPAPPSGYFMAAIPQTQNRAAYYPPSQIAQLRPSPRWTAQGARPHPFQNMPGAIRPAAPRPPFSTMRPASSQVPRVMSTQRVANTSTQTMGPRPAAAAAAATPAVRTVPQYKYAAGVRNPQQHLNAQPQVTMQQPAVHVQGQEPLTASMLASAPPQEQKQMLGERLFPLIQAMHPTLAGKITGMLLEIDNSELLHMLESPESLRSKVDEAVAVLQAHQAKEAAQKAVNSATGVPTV
CSC inhib – blocks cancer stem cells. cancer stem cell-like cells viability, luminescence. inhibition, % at 7.5 µM. actives 1.1% (n = 300,000);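 active means mean at 75% or more and at least half the replicates too; tested in HMLE shEcad cells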;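 further: 0% = median of negative and 100% = median of positive control wells; the first replicate is given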
MT1-MMP act inh – MT1-MMP (human) activation inhibition; P50281; HT1080 RFP-PRO-GFP cells, GFP/RFP ratio fluorescence, overnight; percent of plate control window, DMSO zero; GFP/RFP ratio change, % at 20 µM; actives 0.061% (n = 360,000); AID 651647;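 active means GFP/RFP ratio change of at least 30% with cell ATP level not reduced by more than half and red fluorescence within 50% of control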; further: strong numbers were not always called active
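Assay system: HT1080 RFP-PRO-GFP cells | Dosing: 20 µM single dose, 1% DMSO | Incubation: Cells overnight before dosing, compound overnight, 37 °C, 5% CO2 | Evaluation: GFP/RFP fluorescence ratio | Control set: DMSO-only wells and HT1080 RFP-L50D-GFP cell wells as references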
HIV Env fusion – blocks HIV Env-driven cell-cell fusion | HeLa-JRFL Env/CEM21 cell fusion, luciferase | inhibition, % at 12.3 µM | actives 1.1% (n = 360,000);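 active means mean replicate inhibition score of at least 50 and every replicate individually at or above 50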;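 further: 0% = plate neutral controls and 100% = maraviroc near 300 nM; one replicate is shown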
eIF4H inh retest – second read-out of eIF4H inh, no call of its own (marks repeat the call); inhibition, %; compound at 20 µM; confirmation average;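 mean of two retest wells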
PABP polyA inh retest – second read-out of PABP polyA inh, no call of its own (marks repeat the call); inhibition, %; compound at 20 µM; confirmation repeats;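 mean of two retest wells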
MT1-MMP act inh RFP – second read-out of MT1-MMP act inh, no call of its own (marks repeat the call); RFP signal change, %; measured here: RFP expression control read;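 0 = vehicle wells; hits needed this value within 50% of zero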
* marks the source's active call; other numbers are inactive results; i = inactive; . = not tested or not shown; + = active, no number; & = joins results of further samples. This is a random part of the collection; about 2.9% have a hit in one of these screens.

SMILES	eIF4H inh	Yeast UUG start	Rce1 inh	PABP polyA inh	CSC inhib	MT1-MMP act inh	MT1-MMP act inh RFP	HIV Env fusion	others
O=c1cc(NS(=O)(=O)c2ccccc2)nc(SCc2ccc(Cl)cc2)[nH]1	38	-7	.	-10	88*	-5	-1	9
Cc1cc(NC(=O)CCC(=O)N(CC(=O)NCC2CCCO2)c2ccccc2C)no1 (stereo not given)	-9	-8	i	-6	2	-7	5	3
COc1cc(NC(=O)CCn2c(=O)[nH]c3ccsc3c2=O)cc(OC)c1	-19	-5	i	-10	-2	3	1	5
COc1ccc(-c2nc(N)n(C(=O)c3ccc(C)cc3)n2)cc1	0	.	i	0	-1	9	6	-16
CCN(CC)CCN1CCn2c3c(c4cc(C)ccc42)CCCC31 (stereo not given)	9	.	i	5	15	-9	0	10
Cc1cc(N(CC(=O)NC2CC2)S(C)(=O)=O)ccc1Br	-7	.	i	2	.	0	0	18
CC(=O)NC1=NC(=O)C(C)S1 (stereo not given)	-9	-2	i	-2	-5	-4	2	.
O=c1c(Cl)c(N2CCNCC2)cnn1C12CC3CC(CC(C3)C1)C2	-2	.	i	23	1	1	1	-6
COc1ccccc1CNC(=O)c1ccc2c(=O)n(CC3CCCO3)c(=S)[nH]c2c1 (stereo not given)	0	-35	i	3	-5	1	-3	9
COc1ccc(-c2ccnc(SCC(=O)N3CCN(c4ccccc4)CC3)n2)cc1	29	-21	i	4	-1	-7	-8	7
CC(C)(C)n1nc2c(c1NC(=O)Cc1ccc(Cl)cc1)CS(=O)(=O)C2	-8	0	i	-3	-10	-1	3	11
Cc1cccc(OCC(=O)NCC(c2cccs2)N2CCOCC2)c1 (stereo not given)	.	8	i	.	-11	-1	0	10
CC1CC(C)CN(S(=O)(=O)N2CCC(C(=O)NCCC3=CCCCC3)CC2)C1 (stereo not given)	-9	.	i	-1	-8	0	0	9
O=C(Cn1nnc2ccccc21)Nc1ccc([N+](=O)[O-])cc1	1	.	i	2	-4	2	-1	2
O=C(O)c1ccc(Nc2ncc([N+](=O)[O-])cc2[N+](=O)[O-])cc1	6	.	i	88	3	22	16	11	eIF4H inh retest=-13;PABP polyA inh retest=14
CCC(C)NS(=O)(=O)c1ccc(S(=O)(=O)N(CC(=O)Nc2ccccc2)CC2CCCO2)cc1 (stereo not given)	-15	-4	i	-3	-8	1	-6	-10
COc1ccc(C2=NOC3(CC(=O)N(c4ccc(C)cc4)C3=O)C2)c(OC)c1 (stereo not given)	6	-7	i	-3	-7	2	4	-28
O=C(NCCc1cccnc1)c1cc(COc2ccc(F)cc2Cl)on1	9	-13	+	-6	6	-7	-9	23
NS(=O)(=O)c1ccc(CCNC(=O)[C@@H]2CCCN2S(=O)(=O)c2ccccc2F)cc1	3	3	i	8	-13	-2	-2	-19
Cc1c(S(=O)(=O)NC2CCCCCC2)c(=O)n(C)c(=O)n1C	.	4	i	.	-4	0	1	-16
Nn1c(SCc2ccccc2F)nnc1-c1ccncc1	-6	-27	i	-3	-1	3	4	-6
COc1ccc(/C=C(/NC(=O)c2ccco2)C(=O)Nc2ccc(C(=O)O)cc2)cc1	-6	5	i	2	-4	2	-3	5
O=C(Nc1nccs1)C1CCN(S(=O)(=O)c2cnc[nH]2)CC1	7	-24	i	-3	9	-4	-1	.
CC(C)N(C(=O)CO/N=C/c1cccc([N+](=O)[O-])c1)C(C)C	8	.	i	29	-15	.	.	29
COc1ccc(/C=C(\NC(=O)c2ccccc2)C(=O)NCCN2CCOCC2)cc1	3	-14	i	5	-3	2	2	2
CCOC(=O)c1c(-c2ccccc2)csc1NC(=O)c1cccc(N2C(=O)CCC2=O)c1	0	-18	i	5	1	0	-9	-32
COc1cc2c(cc1OC)C1(CCCCC1)CN(C)C2	-8	1	i	-1	-4	-3	0	9
CC(C(=O)N1CCCC1)N(c1ccc(Cl)cc1)S(C)(=O)=O (stereo not given)	.	-18	.	.	.	-2	0	-6
COC(=O)[C@H](Cc1ccccc1)NC(=O)NCCC1=CCCCC1	10	-5	i	0	.	-3	-3	5
Cc1cc(F)ccc1NCc1ccccc1[N+](=O)[O-]	-2	-15	.	6	2	2	3	9
C=CCn1c2ccccc2c2nnc(SCC(=O)O)nc21	-3	-18	i	20	5	0	1	16
CS(=O)(=O)Nc1ccc(C(=O)Nc2ccc3c(c2)OCCO3)cc1	8	-18	i	14	0	.	.	.
CN(C)CC(C)(C)CN=Cc1c(O)[nH]c2ccccc12	-3	-7	i	-3	-1	0	4	11
COC(=O)c1nnn(CC(=O)NC(=O)Nc2cccc(Cl)c2C)c1C(=O)OC	-3	.	i	-6	-6	0	0	-38
CC(=O)Nc1ccc(OS(=O)(=O)c2ccc(Cl)cc2)cc1	3	-8	i	0	.	-1	1	-8
COc1ccc2c(c1)C=C(C(=O)OCc1cccnc1)CO2	-4	.	i	3	-14	-1	-1	-2
Cc1cccnc1Nc1nc(-c2ccc(O)c(O)c2)cs1	0	-22	i	-6	53	-16	-16	.
O=C(CCc1ccccc1)NNC(=O)COc1ccc(Cl)cc1	0	-16	i	43	-12	-3	1	0
O=C(NN=Cc1ccccc1O)c1cccc([N+](=O)[O-])c1	.	-7	.	.	.	4	-5	-12
c1ccc(-c2ccc(-c3nc(-c4ccncc4)no3)cc2)cc1	3	-12	i	3	3	1	-17	-25
CC(=O)NC(c1ccccc1)c1c(O)ccc2ccccc12 (stereo not given)	12	.	i	-7	-2	-4	-2	5
CC1CCN(C(=O)C2CCN(S(=O)(=O)c3cccnc3)CC2)CC1	-7	.	i	-12	21	4	5	.
CCc1c(C)sc(NC(=O)c2cccs2)c1C(=O)OC(C)C	9	.	i	3	29	-8	-9	.
COc1ccc(S(=O)(=O)Nc2ccccc2C(=O)NC2CC2)cc1NC(C)=O	.	2	.	.	-6	3	2	.
C=CCn1cc(C(=O)OCC)c(=O)c2ccc(F)cc21	-5	.	i	2	-1	-7	0	10
CSCCC(NS(=O)(=O)c1ccc(Cl)cc1)C(=O)OCC(=O)N(C(C)C)C(C)C (stereo not given)	-1	-9	.	-4	-8	3	-2	-5
Cn1cnc([N+](=O)[O-])c1Nc1ccc(O)cc1	1	-12	i	5	-3	1	6	.
Cc1nn(CCCC(=O)NCc2ccccc2)c(=O)c2nccn12	2	-11	i	0	1	1	1	11
CC(Oc1ccc(F)cc1)C(=O)NN (stereo not given)	8	-11	i	-6	2	2	5	1
O=C(NCC1CC1)c1onc(CSc2ccccc2)c1C(=O)NCC1CC1	.	3	i	.	.	1	1	19

Reprinted from the part before: 2 compounds, then new ones.
SMILES	eIF4H inh	Yeast UUG start	Rce1 inh	PABP polyA inh	CSC inhib	MT1-MMP act inh	MT1-MMP act inh RFP	HIV Env fusion	others
CC(Oc1ccc(F)cc1)C(=O)NN (stereo not given)	8	-11	i	-6	2	2	5	1
O=C(NCC1CC1)c1onc(CSc2ccccc2)c1C(=O)NCC1CC1	.	3	i	.	.	1	1	19
Cc1cc(NS(=O)(=O)c2ccc(NC(=O)C3CCCCC3)cc2)no1	0	-11	i	-5	.	1	4	1
CC1(CCOCc2ccccc2)NC(=O)NC1=O (stereo not given)	.	-6	.	.	.	-1	1	3
O=C1CN(C(=O)COc2ccccc2F)c2ccccc2N1	-3	-9	i	6	-1	-1	1	-9
O=C(CN1CCCC1)N/N=C/c1ccc(-c2cccc(Cl)c2)o1	-4	-9	i	-6	2	7	6	.
C=CCNc1nc2c(c(=O)n(C)c(=O)n2C)n1CC(=C)C	-2	-8&1	i	-4	-10	4	-1	-41
CN(C)c1ccc(C(CNC(=O)c2ccc(C#N)cc2)c2c[nH]c3ccccc23)cc1 (stereo not given)	0	-1	i	-11	.	-1	-3	.
O=C(NC1CCCC1)C(c1ccccn1)N(C(=O)c1csnn1)c1ccccc1Cl (stereo not given)	15	-7	i	2	-10	1	7	5
CC(=O)N(C1=C(N)C(=O)c2ccccc2C1=O)C(C)C	6	.	i	-8	-6	2	10	6
COc1ccccc1CNC(=O)C1CC2Cn3c(nc4cc(Cl)c(Cl)cc43)C2N1C (stereo not given)	.	-15	i	.	-1	3	-2	9
CC1(c2ccccc2)CC2CC(c3ccccc3)N1O2 (stereo not given)	-7	-8	i	-7	0	2	-1	.

Part of the list above in order of heavy-atom count, lowest first.
SMILES	eIF4H inh	Yeast UUG start	Rce1 inh	PABP polyA inh	CSC inhib	MT1-MMP act inh	MT1-MMP act inh RFP	HIV Env fusion	others
CC1(CCOCc2ccccc2)NC(=O)NC1=O (stereo not given)	.	-6	.	.	.	-1	1	3
CC1(c2ccccc2)CC2CC(c3ccccc3)N1O2 (stereo not given)	-7	-8	i	-7	0	2	-1	.
O=C(CN1CCCC1)N/N=C/c1ccc(-c2cccc(Cl)c2)o1	-4	-9	i	-6	2	7	6	.
O=C(NC1CCCC1)C(c1ccccn1)N(C(=O)c1csnn1)c1ccccc1Cl (stereo not given)	15	-7	i	2	-10	1	7	5
CN(C)c1ccc(C(CNC(=O)c2ccc(C#N)cc2)c2c[nH]c3ccccc23)cc1 (stereo not given)	0	-1	i	-11	.	-1	-3	.

Further records.
SMILES	eIF4H inh	Yeast UUG start	Rce1 inh	PABP polyA inh	CSC inhib	MT1-MMP act inh	MT1-MMP act inh RFP	HIV Env fusion	others
O=C(COC(=O)c1cccnc1Cl)NCCC1=CCCCC1	-12	5	i	-5	8	0	4	-7
CC1CC(C)CN(C(=O)COC(=O)/C=C/c2ccco2)C1 (stereo not given)	.	-5	.	.	-14	0	-1	4
CS(=O)(=O)c1ccc(NC(=O)c2cccc(-n3cnnn3)c2)cc1	.	4	.	.	-13	-2	2	-5
COc1cc(OC)c(NC(=S)NCc2ccccc2)cc1Cl	-3	-29	i	-1	-17	3	-1	-5
CCOC(=O)c1ccc(N2C(=O)c3cccc4c(C(=O)O)ccc(c34)C2=O)cc1	7	-12	i	3	-3	1	4	1
O=C(Nc1ccccc1C(=O)O)c1ccc(NC(=O)C2CCCCC2)cc1	6	-14	i	12	-11	-3	2	13
Cc1ccccc1CN1CCN(CC(=O)NC(C)c2ccccc2)CC1 (stereo not given)	5	-5	i	-3	-5	-1	5	23
O=C(O)c1ccc(N2CCOCC2)c(N2C(=O)C3C4C=CC(C4)C3C2=O)c1 (stereo not given)	5	.	i	-4	-13	-4	-2	-12
O=C(CC1C(=O)N(Cc2ccccc2)C(=S)N1CCN1CCOCC1)Nc1ccc(F)cc1 (stereo not given)	1	-7	i	-1	-4	0	2	0
Cc1ccc2nc(NCc3ccccc3)c(C#N)cc2c1	-1	-9	i	5	11	1	6	-8
Cc1ccc(-n2nnnc2SCC(=O)NC(C(=O)O)(c2ccccc2)c2ccccc2)cc1C	-1	.	i	5	2	-3	-3	23
COc1ccc(S(=O)(=O)Nc2c(C(=O)O)[nH]c3ccc(OC)cc23)cc1	-9	-13	i	9	-10	2	9	-25
COc1ccc(NC(=O)c2ccc(-n3cncn3)c([N+](=O)[O-])c2)cc1	10	-18	i	92*	-19	2	0	-9	eIF4H inh retest=-7;PABP polyA inh retest=92*
C=CCn1cnc2c(c1=O)c1nc3ccccc3nc1n2/N=C/c1cccc(OC)c1	13	-7	.	8	.	-1	6	5
O=C(O)CSc1nnc(-c2cccc(S(=O)(=O)N3CCOCC3)c2)n1-c1cccc(Cl)c1	3	-16	i	16	7	0	6	13
Cc1ccc(CN2C(=O)C(CC(C)C)Nc3ncnc(N4CCN(c5ccccn5)CC4)c32)cc1 (stereo not given)	.	15	i	.	4	-5	-6	.
Cc1ccccc1N=C(NOCc1ccc(Cl)cc1Cl)c1nonc1N	11	.	i	-4	98*	-3	-8	45
Cc1cc(C)c2c(n1)SCC(=O)N2CC(=O)Nc1ccc(Br)c(C)c1	36	-16	i	13	-11	-8	0	-2
CC(=O)c1cnc2c(-c3ccc(Cl)cc3)c(C)nn2c1C	0	-3	i	-2	-8	5	6	.

Screening results deposited in PubChem BioAssay by several laboratories.
